High-throughput results deposited in PubChem BioAssay by ICCB-Longwood Screening Facility, Harvard Medical School.
MgrA-DNA mod: S. aureus MgrA activity modulators, primary screen, biochemical, S. aureus Newman, fluorescence polarization | MgrA-DNA binding | inhibition, %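 (about 10 µg/mL by stock and volumes)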 | 84,000 tested, 0.13% active | AID 602314, 2012;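 active = above 50% in either of two replicates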;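 also: 0% = protein plus DNA without compound and 100% = DNA alone without protein; higher means less MgrA bound to DNA so lower polarization; one replicate is shown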
S aureus helic: inhibitors of S. aureus replicative helicase, primary screen, biochemical, fluorescence unwinding readout; 120,000 tested, 0.05% active; purified S. aureus helicase, fluorescence unwinding assay; about half of the hits fall short of the stated cut; AID 485395, 2010; replicative DNA helicase (DnaC/DnaB), Staphylococcus aureus; inhibition, %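 (tested at about 80 µM)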;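 active = both duplicates at 50% or more, or one of them with a favoured structure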;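 also: 0% = mean of negative control wells and 100% = mean of positive control wells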
* hit, by the source's call; nt = no result given. This is a subset; rates above refer to the full screens.

SMILES | MgrA-DNA mod | S aureus helic
Cc1cc(C)nc(Nc2nc(=O)c3ccccc3s2)n1 | nt | 5
CC(C)(C)C(=O)OCC(=O)c1cc(C(F)(F)F)cc(C(F)(F)F)c1 | 0.1 | nt
O=C(Cn1nc(-c2ccco2)ccc1=O)Nc1ccccc1Cl | 5.4 | 3
O=S(=O)(c1ccc(Cl)c2ccccc12)N1CCCC1 | -0.2 | 16
CC(C)CN(C(=O)CSc1nc2ccccc2[nH]1)c1c(N)n(CC(C)C)c(=O)[nH]c1=O | nt | -15
CCN1/C(=C2\C(=O)N(c3ccccc3)N=C2C)C=Cc2ccccc21 | 3.4 | 4
COCc1c(Br)c(C)nc2sc3c(=O)[nH]nnc3c12 | nt | -25
CCOC(=O)C1CCCN(C(=O)COc2ccc(N(C)S(=O)(=O)c3ccc(F)cc3)cc2)C1 (stereo unspecified) | nt | -1
CC1CN(C2=NCCN2S(=O)(=O)c2cc(C(F)(F)F)cc(C(F)(F)F)c2)CC(C)O1 (stereo unspecified) | 0.4 | nt
O=C1NC(C(=O)O)Cc2ccccc21 (stereo unspecified) | nt | 10
Cc1cc(C(=O)COC(=O)c2cc(S(C)(=O)=O)ccc2Cl)c(C)n1C | nt | 7
CCN=C1S/C(=C/c2sccc2C)C(=O)N1CC | -0.5 | 0
CCN(CC(=O)Nc1ccccc1)c1ccccc1 | -0.4 | 0
CN(C)S(=O)(=O)c1ccc(C(=O)NCc2n[nH]c(=O)c3ccccc23)cc1 | nt | 8
CCCCc1c(COC)nc(SC)[nH]c1=O | -2.2 | nt
CC12CCC3(C)OCC(COC(=O)NS(=O)(=O)c4ccccc4)(CO1)N23 (stereo unspecified) | -5.9 | 5
CCOc1ccc(NC(=O)c2ccc(SC)cc2OC)cc1 | 5.2 | 6
CCOC(=O)c1c(C)[nH]c(C(=O)CC#N)c1C | nt | 0
CN[C@H](CC(=O)O)C(=O)O | 1.9 | nt
O=C(NCC1COc2ccccc2O1)c1ccc(Cl)cc1 (stereo unspecified) | -1.2 | nt

Some of the entries above in a different format:
| SMILES | MgrA-DNA mod | S aureus helic |
| --- | --- | --- |
| CCN=C1S/C(=C/c2sccc2C)C(=O)N1CC | -0.5 | 0 |
| CCN(CC(=O)Nc1ccccc1)c1ccccc1 | -0.4 | 0 |
| CN(C)S(=O)(=O)c1ccc(C(=O)NCc2n[nH]c(=O)c3ccccc23)cc1 | nt | 8 |
| CCCCc1c(COC)nc(SC)[nH]c1=O | -2.2 | nt |
| CC12CCC3(C)OCC(COC(=O)NS(=O)(=O)c4ccccc4)(CO1)N23 (stereo unspecified) | -5.9 | 5 |
| CCOc1ccc(NC(=O)c2ccc(SC)cc2OC)cc1 | 5.2 | 6 |

The list goes on.
SMILES | MgrA-DNA mod | S aureus helic
NC(=O)c1ccc(-n2ccnc2)cc1 | 0.6 | nt
Cc1ccc2nc(NC(=O)C3CCCN(S(=O)(=O)c4ccc5c(c4)oc(=O)n5C)C3)sc2c1 (stereo unspecified) | 0.6 | -2
O=C(NN1CC(=O)N(CCc2ccccc2)C1=O)c1cccnc1 | -0.9 | 2
Cc1cccc(C)c1OCCCn1ccnc1 | -1.5 | 10
O=C1S/C(=C\c2ccc(N3CCOCC3)o2)C(=O)N1c1ccccc1 | 7.4 | -102
Cc1nnc(-c2ccc(-c3ccccc3)cc2)o1 | 1.0 | 4
CC(C)(C)S(=O)(=O)/C(C#N)=C/c1ccc(F)c(Cl)c1 | -0.7 | nt
COc1ccc(C(=O)N2CCN(Cc3ccc(OC)c(OC)c3OC)CC2)cc1 | nt | 29
COc1ccc(Cc2nnc(SCC(=O)NC(C)C)n2-c2ccc(F)cc2)cc1OC | 0.8 | nt
Cc1ccc(Nc2nc(SCc3ccccc3)nnc2C)cc1 | -1.1 | 4
O=C1CCCC(O)=C1C=Nc1ccc(N=CC2=C(O)CCCC2=O)cc1 | -0.6 | 8
COC(=O)CCC(=O)Nc1ccc(-c2nc3ccc(C)cc3s2)cc1 | nt | 10
N#Cc1c(N)nc2c(c1-c1ccc(Br)s1)CCCC2 | -1.6 | 3
COCCn1c(C)cc(C(=O)COC(=O)c2cc(-c3ccco3)nc3ccccc23)c1C | nt | 8
NS(=O)(=O)c1ccc(N=NSCCO)cc1 | -3.2 | -1
Cc1ccc(S(=O)(=O)NCC(=O)NC2CCCCCC2)cc1 | 0.9 | 16
CNc1ccnc(C(=O)O)c1 | nt | -1
CC1=CC(C)(C)Nc2ccc(OC(=O)Cc3ccccc3)cc21 | -1.6 | -13
Cn1c2c(c(=O)[nH]c1=O)C1(O)C(=O)c3ccccc3C1(O)N2 (stereo unspecified) | 0.1 | 12
CCOC(=O)c1c(-c2ccccc2)c2oc3ccccc3c2[nH]c1=O | 3.0 | -6

Four entries from above, with each value named.
COc1ccc(Cc2nnc(SCC(=O)NC(C)C)n2-c2ccc(F)cc2)cc1OC
  MgrA-DNA mod: 0.8
  S aureus helic: nt
COC(=O)CCC(=O)Nc1ccc(-c2nc3ccc(C)cc3s2)cc1
  MgrA-DNA mod: nt
  S aureus helic: 10
Cc1cc(C(=O)COC(=O)c2cc(S(C)(=O)=O)ccc2Cl)c(C)n1C
  MgrA-DNA mod: nt
  S aureus helic: 7
O=C1NC(C(=O)O)Cc2ccccc21 (stereo unspecified)
  MgrA-DNA mod: nt
  S aureus helic: 10

Continuation:
SMILES | MgrA-DNA mod | S aureus helic
CCNC(=O)CSc1nnc(-c2cccc(S(=O)(=O)N(CC)CC)c2)n1-c1ccccc1 | nt | -5
COC(=O)c1cccc(-c2ccc(C=C3C(=O)OC(c4ccccc4)OC3=O)o2)c1 (stereo unspecified) | 1.6 | 13
CN(C)C(CNC(=O)c1ccccn1)c1ccco1 (stereo unspecified) | nt | -9
O=C1OCC(CO)(CO)N=C1NNc1ccccc1 | nt | -2
CC(=O)NCCc1ccc(S(=O)(=O)N(C)C)cc1 | 1.7 | 1
O=C(COC(=O)c1cccs1)NCc1ccccc1 | -0.8 | -19
Cc1cccc(OCC(O)CN2CCc3ccccc3C2)c1 (stereo unspecified) | nt | 2
Cc1cc(C(C)(C)C)oc1C(=O)O | -0.4 | -6
Cn1c(CN2CCC(C(N)=O)CC2)c(C#N)c2ccccc21 | nt | 12
COc1ccc(C(=O)N2CCN(c3ncnc4cc(-c5ccccc5)sc34)CC2)cc1OC | 0.5 | nt
CCOc1ccc(C(=O)Nc2sc3c(c2C(N)=O)CCC3)cc1 | -0.7 | 17
O=C(CN1c2cccc3cccc(c23)S1(=O)=O)N1CCCCCC1 | nt | -4
CN(C)c1ccc(C(=S)N2CCNCC2)cc1 | nt | 8
Clc1cnc(Cl)c(Cl)c1 | nt | -28
O=C(c1ccc(Cl)cc1)N1CCCc2ccccc21 | 1.1 | -1
Cc1ccccc1NC(=O)CC(Cc1ccccc1)C1CCOC(C)(C)C1 (stereo unspecified) | nt | 7
COc1ccc(N2CCN(C(=O)c3cccnc3Nc3ccccc3F)CC2)cc1 | nt | 12
CCC(C)NC(=O)CSc1nc2n[nH]c(C)c2c(=N)n1-c1ccccc1Cl (stereo unspecified) | nt | 8
CC(C)n1c(O)c(N=NC(=O)c2ccc(O)cc2)c2ccccc21 | nt | -2
Cc1cc2c3c(c1)C1(C(=O)N3C(C)(C)CC2C)C(C#N)=C(N)Oc2n[nH]c(C)c21 (stereo unspecified) | -1.4 | 20
COc1cc(N=Cc2nc(-c3ccccc3Br)oc2O)c(C(=O)O)cc1OC | 0.3 | nt
CC1(C)CC(=O)C=C(NCCCc2[nH]nc(N)c2C#N)C1 | nt | 1
FC(F)(F)C1(C(F)(F)F)N=C(c2ccccc2)NC(c2ccccc2)=N1 | -3.0 | -1
CC(=O)N/N=C/c1ccc(-c2cc(C(F)(F)F)n(C)n2)s1 | nt | 16
COc1ccc(OC(=O)c2c(C)nn(-c3ccccc3)c2C)cc1 | -0.8 | nt
O=C(CC1CCCC1)NCCS(=O)(=O)N1CCN(c2ccccc2)CC1 | nt | 6
CCOC(=O)c1cc(-c2ccccc2)[nH]c(=O)c1C#N | -2.1 | nt
O=C(OCC(=O)N1CCCCC1)c1cc(=O)[nH]c(=O)[nH]1 | nt | -2
CC(=O)Nc1ccc(NC(=O)c2cccc(C)c2)cc1 | -6.2 | 15
CCCc1cc(C(=O)Nc2nnc(CC)s2)sc1C | nt | -4
O=c1c(-c2ccccc2)c1-c1ccccc1 | 1.3 | nt
Cc1nn(-c2ccccc2)c2c1N(CCCC(=O)NC1CCCCC1)C(=O)CS2 | nt | -23
CC(C)C(=O)Nc1nnc(C23CC4CC(CC(C4)C2)C3)s1 | nt | 5
CSc1ncnc2sc3c(c12)CCCC3 | nt | -16
CS(=O)(=O)N1CCCCCC1 | nt | -5
Cc1nc(C(F)(F)F)c(-c2ncn(-c3ccccc3)n2)s1 | -3.4 | nt
Cc1ccc(NC(=O)CSc2nc3c(cc2C#N)C(=O)CC(C)(C)C3)cc1 | nt | 21
CNC(=S)N1N=C2c3ccccc3CCC2C1c1ccc(OC)cc1 (stereo unspecified) | 0.0 | nt
O=C(O)c1ccc(NNC(=S)NCC2CCCO2)cc1 (stereo unspecified) | nt | 1
CC(C)(C)C(=O)/C=C1\SCC(=O)N1CC(=O)N1CCN(c2ccccc2)CC1 | nt | 7
O=C1CCCC2=C1C(c1ccc(Br)cc1)n1ncnc1N2 (stereo unspecified) | nt | -1
O=C(Nc1nc(-c2csc(NC(=O)C3CC3)n2)cs1)C1CC1 | nt | -8
N#CCC(=O)NC(=O)c1cc2ccccc2oc1=O | 7.2 | 4
Cc1ccc(Cn2c(=O)c3ccccc3n3c(SCC(=O)N4CCCC4)nnc23)cc1 | nt | 8
CC1(C)CC2CC(C)(CN2CC(O)COc2ccc(F)cc2Cl)C1 (stereo unspecified) | 1.1 | 7
O=C(COc1ccc(Cl)cc1Cl)OCCN1CCOCC1 | -6.9 | 5
CS(=O)(=O)Nc1ccc(Cl)cc1C(=O)c1ccccc1 | 4.4 | 7
CNc1nc(Nc2ccc(C(C)=O)cc2)nc(OC(C(F)(F)F)C(F)(F)F)n1 | 2.9 | nt
Cc1cccc(OCCC(=O)NCC2(N3CCOCC3)CCCCC2)c1 | nt | -8
CCOC(=O)c1c(C)[nH]c(/C(C)=N/NC(=O)Cn2nc(C)cc2C)c1C | nt | -11
Cc1cc(O)c(C=Nc2cccc(F)c2)c(=O)o1 | nt | 13
Cc1ccc(Nc2nc(C(=O)N3CCC(C(=O)NCCN4CCOCC4)CC3)cs2)cc1 | -0.6 | 19
CSc1ccc(-c2nc(SCC(=O)NCc3ccco3)c(-c3ccccc3)[nH]2)cc1 | 0.3 | 10
CCCN1C(=O)/C(=C2/C(=O)N(Cc3ccc(C)cc3)c3ccccc32)SC1=S | nt | -22
O=C1C=CC(=NS(=O)(=O)c2ccc(C(=O)O)cc2)C=C1 | nt | 2
CCC(C)C(=O)NCc1ccc(C)cc1 (stereo unspecified) | 0.8 | 3
O=C(CSc1nccc(=O)[nH]1)Nc1ccc(Cl)cc1 | 1.1 | 0
NC(=O)N/N=C/c1ccc(/C=N/NC(N)=O)cc1 | nt | -32
Cc1ccccc1CNC(=O)C1CCN(C(=O)c2sccc2-n2cccc2)CC1 | nt | -16
O=C(Cn1cccc1)Nc1ccc(F)cc1F | nt | 9
Additional structures.
SMILES | MgrA-DNA mod | S aureus helic
O=C1NC(=Nc2ccccc2)SC1Cc1ccccc1Cl (stereo unspecified) | nt | -12
CCCCOc1ccc(-n2c(N)c(C#N)c3nc4ccccc4nc32)cc1 | nt | 19
CN(C)CCN(C(=O)c1ccco1)c1nc2cc3c(cc2s1)OCO3 | -1.6 | 11
CC(=O)N1CCN(C(=O)/C=C/c2ccc(Br)cc2)CC1 | nt | -2
CCCN1CCC(=NNc2c(Cl)cc(Cl)cc2Cl)CC1 | nt | -8
Cc1ccc(Cl)cc1NC(=S)N(C(C)C)C1CCN(C(C)C)CC1 | 0.5 | 5
CCN(C(=N)SC)c1ccccc1 | 1.9 | nt
O=C(NCc1cccnc1)c1cccc2c1OCCCO2 | -2.4 | nt
CSc1ccc(C=C2C(=O)OC(C)(C)OC2=O)s1 | nt | 23
Cc1nn(C)c(C)c1-n1nncc1C | -3.0 | nt
O=C(c1ccco1)N1CCN(C(=O)C(Cc2ccccc2)NS(=O)(=O)c2cccc3nsnc23)CC1 (stereo unspecified) | nt | 13
CCN(c1ccc(C(=O)CSc2nnc(-c3cccs3)n2C2CC2)cc1)S(C)(=O)=O | nt | 7
Cc1cc(C)c2c(c1)NC(c1ccc(Cl)cc1Cl)C1CC=CC21 (stereo unspecified) | -2.7 | nt
CC(=O)Nc1ccc(NC(=O)C(C)OC(=O)C23CC4CC(CC(C4)C2)C3)cc1 (stereo unspecified) | 2.3 | -12
CCOC(=O)c1ccc(N=Cc2c(O)[nH]c(=O)[nH]c2=O)cc1 | -2.5 | 2
CN(C)S(=O)(=O)c1ccc2nnn(OCCOc3cccc(Br)c3)c2c1 | nt | 0
NC(=O)c1cc(S(=O)(=O)N(Cc2ccco2)C2CCCCC2)cs1 | nt | 14
N#C/C(=C\NCc1cccnc1)S(=O)(=O)Cc1ccc(Cl)cc1 | 1.0 | nt
CN(C)/C=C1\C(=O)N(c2ccc([N+](=O)[O-])cc2)N=C1c1ccccc1 | -0.7 | nt
NC(=O)CN(c1ccccc1)S(=O)(=O)c1ccc(F)cc1 | 0.2 | 5
CCCNC(=O)c1cc(C)no1 | nt | 5
CN1C(=O)/C(=C\c2ccc(C(=O)O)cc2)c2cc(Br)ccc21 | 11 | -7
O=c1cc(CO)[nH]cc1OCc1ccccc1 | -0.5 | nt
CC(C)COC(=O)Nc1cccc2ccccc12 | -0.9 | 10
O=C(O)c1ccc(/C=c2/sc3nc4ccccc4n3c2=O)cc1 | nt | 15
CC(C)CN(CC(C)C)CN1CC(COc2cccc3ccccc23)OC1=O (stereo unspecified) | nt | -10
